Compound activity deposited in PubChem by Johns Hopkins Ion Channel Center.
KCNQ2 enhance = potentiators of rat KCNQ2 potassium channel; B-score at 10 µM; CHO-K1 KCNQ2, FluxOR thallium flux fluorescence; stronger effect = higher value; hit rate 0.54% among 310,000; AID 2239; O88943;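 active = fluorescence ratio B-score at least 3 SD of library B-scores, with initial fluorescence B-score within 3 SD, cut at about 5.3 in these data; same plate scores as AID 2156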;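 also: B-score of peak minus minimum over baseline fluorescence ratio after K+ and Tl+ stimulus; positive B-score means potentiation of KCNQ2 with more thallium influx and brighter signal; only the inactives scoring about 0 or higher are listed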
Target sequence (O88943 whole entry, looked up): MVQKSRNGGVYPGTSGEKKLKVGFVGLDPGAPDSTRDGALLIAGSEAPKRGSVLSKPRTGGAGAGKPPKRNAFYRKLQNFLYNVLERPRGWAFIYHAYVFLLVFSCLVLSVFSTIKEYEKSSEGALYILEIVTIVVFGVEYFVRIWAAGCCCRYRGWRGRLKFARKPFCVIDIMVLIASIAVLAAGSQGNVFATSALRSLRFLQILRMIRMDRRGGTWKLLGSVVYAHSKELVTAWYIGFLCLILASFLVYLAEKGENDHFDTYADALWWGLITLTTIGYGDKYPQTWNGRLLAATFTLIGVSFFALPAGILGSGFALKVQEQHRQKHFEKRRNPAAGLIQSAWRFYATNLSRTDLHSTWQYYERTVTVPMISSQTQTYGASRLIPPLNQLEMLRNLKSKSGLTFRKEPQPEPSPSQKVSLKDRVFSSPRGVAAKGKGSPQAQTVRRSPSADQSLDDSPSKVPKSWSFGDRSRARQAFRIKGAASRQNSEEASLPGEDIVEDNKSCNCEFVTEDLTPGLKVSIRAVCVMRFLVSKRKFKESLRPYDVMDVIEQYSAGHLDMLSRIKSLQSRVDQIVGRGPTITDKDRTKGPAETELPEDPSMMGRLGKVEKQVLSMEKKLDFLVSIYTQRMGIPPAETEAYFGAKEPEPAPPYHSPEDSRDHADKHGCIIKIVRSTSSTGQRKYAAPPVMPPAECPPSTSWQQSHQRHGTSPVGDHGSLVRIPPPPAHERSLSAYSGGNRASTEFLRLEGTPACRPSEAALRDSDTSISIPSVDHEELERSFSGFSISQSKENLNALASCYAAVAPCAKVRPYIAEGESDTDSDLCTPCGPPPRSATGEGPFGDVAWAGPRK
KCNQ2 enhance baseline = also measured in KCNQ2 enhance; calls as there; B-score; compound at 10 µM; measured here: initial fluorescence intensity artifact check;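 brightness before thallium and not channel activity; 0 = typical well and far values either way flag optical interference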
An asterisk follows results filed as active. Some of the compounds tested. The share of hits here may be higher or lower than overall.

mol | KCNQ2 enhance | KCNQ2 enhance baseline
COc1cc(C=O)ccc1OCC(=O)Nc1ccc2c(c1)OCO2 | 0.13 | -0.14
Cc1ccc(CN(C(=O)COc2cccc(C)c2C)C2CCS(=O)(=O)C2)o1 (centres undefined) | 1.18 | 1.62
Oc1ccc(N=Nc2cccc(Cl)c2)cc1C=Nc1ccc(N2CCOCC2)cc1 | 1.44 | 0.76
COc1ccccc1NS(=O)(=O)c1c(C)nc2sccn2c1=O | 0.88 | 0.71
COCCCNC(=O)C1CCN(S(=O)(=O)c2ccc3nc4c(c(C(=O)O)c3c2)CCCCC4)CC1 | 2 | 0.01
CCOC(=O)c1cccc(NC(=O)CCOc2ccccc2)c1 | 0.4 | 0.62
O=C(C1=C(O)C(=O)N(c2ncccn2)C1c1ccc(Cl)c(Cl)c1)c1ccco1 (centres undefined) | 0.1 | 0.01
COc1cccc(N2CCN(c3ccc4nnc(CCC(=O)Nc5ccc(C)cn5)n4n3)CC2)c1 | 1.23 | -0.85
Cc1nnc(SCc2ccc(Cl)c(Cl)c2)s1 | 0.54 | 1.29
O=[N+]([O-])c1ccc(Oc2ccc(S(=O)(=O)N3CCOCC3)cn2)cc1 | 0.1 | 1.95
O=c1c2cnn(-c3ccccc3)c2nc(-c2cccs2)n1-c1ccc(Br)cc1 | 0.02 | 0.35
N=c1c(C(=O)NC2CCCC2)cc2c(=O)n3ccccc3nc2n1CCN1CCOCC1 | 0.96 | -1.91
CCCCCC(NC(=O)C1CCN(C(=O)[C@@H](NS(=O)(=O)c2ccc(C)cc2)C(C)C)CC1)C(=O)O (some centres undefined) | 0.79 | -0.39
O=C(Oc1cccc(NC(=O)c2ccccc2Cl)c1)c1ccc([N+](=O)[O-])cc1 | 1.53 | -1.56
CCCCCCCCNC(=O)c1ccc(C)cc1 | 3.01 | -0.18
CN(CC(=O)Nc1ccc(F)cc1)C(=O)COc1ccccc1Cc1ccccc1 | 1.59 | 0.21
COc1ccc(NC(=O)CCC(=O)N2CCCC2)c([N+](=O)[O-])c1 | 0.24 | -1.32
Cc1cnc(C(=O)OCC(=O)Nc2oc(-c3ccccc3)c(-c3ccccc3)c2C#N)cn1 | 0.82 | 0.72
CCOc1ccc(NS(=O)(=O)c2c(C)nc3sccn3c2=O)cc1 | 1.95 | -1.02
CCOc1ccc(-n2c(SCc3nc(-c4cccs4)no3)nnc2-c2ccncc2)cc1 | 0.08 | 0.47

Later entries:
mol | KCNQ2 enhance | KCNQ2 enhance baseline
Cc1ccc(NC(=O)CSc2nnc(-c3ccccn3)n2C)cc1 | 0.61 | -1.08
O=C(CCNS(=O)(=O)c1ccc(Cl)cc1)NCc1ccccn1 | 0.09 | 0.28
Cc1csc2c(=O)[nH]cnc12 | 0.07 | -0.08
COc1ccc(CNC(=O)COC(=O)CCOc2ccccc2)cc1 | 1.18 | 0.07
CCCCCCC(O)(c1ccc(OC)cc1)C(CN1CCOCC1)c1ccccc1 (centres undefined) | 6.37* | 0.25*
Cn1c(N)c(C(=O)COC(=O)[C@H](Cc2ccccc2)N2C(=O)c3ccccc3C2=O)c(=O)n(C)c1=O | 0.34 | -0.22
COc1ccc2c(c1)CC/C(=C/c1ccccn1)C2=O | 0.29 | 0.42
Cn1c(=O)oc2cc(S(=O)(=O)NCCC(=O)NCc3ccccc3Cl)ccc21 | 1.35 | -1.09
CCCC1=Nc2cc(C(=O)NCCN3CCOCC3)ccc2Sc2ccccc21 | 0.02 | 2.07
c1ccc(Cc2noc(CN3CCCC(CN4CCOCC4)C3)n2)cc1 (centres undefined) | 0.02 | 0.19
O=S(=O)(Nc1ncccn1)c1ccc(Cl)cc1 | 0.45 | 0.94
Cc1ccc(C)c(S(=O)(=O)NC(CCC(N)=O)C(=O)O)c1 (centres undefined) | 0.68 | 0.85
CCCCOc1ccccc1C(=O)NCCCC(=O)O | 0.68 | 0.77
COC(=O)c1ccc(N2CCN(C)CC2)c(NC(=O)c2cccs2)c1 | 0.65 | 0.01
O=c1nc2s/c(=C\c3ccco3)c(=O)n2nc1Cc1ccc(F)cc1 | 0.2 | -0.46
CCOc1ccc(C(C)=O)cc1COC(=O)CN1C(=O)NC2(CCCC2)C1=O | 0.06 | -1.63
O=C(COC(=O)c1ccc(Cl)nc1)Nc1ccc(S(=O)(=O)N2CCCC2)cc1 | 0.26 | 1.63
COc1ccc(C(=O)Nc2ccccc2C(=O)NCCN2CCOCC2)cc1OC | 0.15 | -0.08
Cc1ccc(-n2c(C)c3c(C)nnc(C)c3c2C)cc1N | 0.11 | 0.03
COc1ccc(S(=O)(=O)N2CCC(C(=O)NC3CC3)CC2)cc1Cl | 2.5 | -1.83

Next structures
mol | KCNQ2 enhance | KCNQ2 enhance baseline
Cc1csc2nc(CCNS(=O)(=O)c3cccs3)cn12 | 1.84 | -0.63
CCCCC(C(=O)N/N=C/c1ccccn1)C(=O)N/N=C/c1ccccn1 | 0.09 | -1.03
CCC(CC)C(=O)N1CC(=O)Nc2ccc(C)cc2C1c1ccccc1 (centres undefined) | 1.08 | 0
CN(C)C(CNC(=O)CCNC(=O)c1ccc(Br)cc1)c1ccco1 (centres undefined) | 0.22 | -0.07
O=C(CSc1ncn[nH]1)NCc1ccccc1Cl | 0.39 | -0.76
COc1cc(/C=N/NC(=S)NCCN2CCOCC2)cc(OC)c1O | 0.01 | -1.05
COC(=O)c1cc(COC(=O)c2ccc3ccccc3n2)oc1C | 0.07 | -0.57
NS(=O)(=O)c1ccc(CCNC(=S)NC2CCCC2)cc1 | 0.53 | -0.71
C=CCSc1nnc(NC(=O)C2=COCCO2)s1 | 0.21 | 2.14
Cc1c2ccccc2nc2ccccc12 | 0.87 | -0.2
COc1ccc(C(=O)CSc2nn3c(=O)c(C(C)(C)C)nnc3s2)cc1 | 0.28 | 0.15
Cc1cc(=O)oc2c(C)c(OC(C)C(=O)NCCCN3CCCC3=O)ccc12 (centres undefined) | 0.01 | 1.83
c1ccc(OCCOCCN2CCc3ccccc3C2)cc1 | 0.27 | -0.35
O=S(=O)(N1CCCCCC1)N1CCN(S(=O)(=O)N2CCOCC2)CC1 | 0.8 | 0.99
Cc1ccc2c(=O)[nH]c(Nc3nc(C)cc(-c4ccccc4)n3)nc2c1 | 1.69 | 0.19
Cc1csc2nc(CNS(=O)(=O)c3ccc4c(c3)OCCO4)cn12 | 2.12 | -0.03
O=c1nc2n(c3cccc(Cl)c13)CCCCC2 | 0.47 | 0.02
COc1ccc(C(CNC(=O)c2cc(=O)[nH]c3ccccc23)N2CCCC2)cc1 (centres undefined) | 0.1 | 0.23
O=C(N/N=C/c1ccccc1[N+](=O)[O-])c1cccs1 | 0.52 | -0.04
Cc1cc(N2CCN(c3ccccc3)CC2)n2ncnc2n1 | 0.95 | -0.02

Further entries follow:
molecule,KCNQ2 enhance,KCNQ2 enhance baseline
C=CCN1c2ccccc2[C@]23C[C@@H](C(=O)OC)N(C(=O)c4ccco4)C2=NC(C(=O)OC)=C(C(=O)OC)[C@H]13,0.03,-1.36
O=C1NC(=O)/C(=C\c2ccc(Oc3cnccn3)cc2)S1,0.88,-1.33
COc1ccc2c(c1)c(CC(=O)OC(C)C(=O)N(C)C)c(C)n2C(=O)c1ccc(Cl)cc1 (centres undefined),0.29,0.03
COC(=O)C1=CN(Cc2ccc(OC)c(OC)c2)C=C(C(=O)OC)C1c1cccc(O)c1,1.91,-1.63
O=C(O)C1CC=CCC1C(=O)NCCc1csc(-c2ccccc2)n1 (centres undefined),0.43,-0.01
Cc1cc([N+](=O)[O-])nn1Cc1c(F)c(F)c(F)c(F)c1F,1.53,0.44
CCOc1cccc(-c2c(C(=O)N/N=C/c3ccc(C)s3)nnn2-c2nonc2N)c1,2.11,-0.09
Nn1c(SCC(=O)Nc2ccccc2F)nc2ccccc2c1=O,2.68,1.08

The last four compounds of the part before open the next one:
molecule,KCNQ2 enhance,KCNQ2 enhance baseline
O=C(O)C1CC=CCC1C(=O)NCCc1csc(-c2ccccc2)n1 (centres undefined),0.43,-0.01
Cc1cc([N+](=O)[O-])nn1Cc1c(F)c(F)c(F)c(F)c1F,1.53,0.44
CCOc1cccc(-c2c(C(=O)N/N=C/c3ccc(C)s3)nnn2-c2nonc2N)c1,2.11,-0.09
Nn1c(SCC(=O)Nc2ccccc2F)nc2ccccc2c1=O,2.68,1.08
CC(=O)NC(CCS(C)(=O)=O)C(=O)Nc1ccccc1Cl (centres undefined),0.09,0.72
CC1CCC(C(C)C)C(OCC(O)CN2CCCC(C)C2)C1 (centres undefined),0.17,-0.07
CCCCN(C)C(=O)Cn1ncc2c3ccccc3n(CCC)c2c1=O,6*,-0.87*
O=[N+]([O-])c1cccc(-c2nc3ccc([N+](=O)[O-])cc3[nH]2)c1,2.21,0.6
Cc1c(CCC(=O)O)c(=O)oc2cc3occ(C(C)(C)C)c3cc12,1.65,-0.59
CC(=O)N1c2ccc(S(=O)(=O)NCCC(=O)NC3CCCCCC3)cc2CC1C (centres undefined),1.19,0.48
CC1=NN(c2ccccc2)C(=O)/C1=C\c1ccc(Br)s1,0.64,0.36
CCOc1ccc(NC(=O)CSc2nc(=O)n(CCN3CCOCC3)c3c2CCCC3)cc1,2.28,0.17

Next part.
molecule,KCNQ2 enhance,KCNQ2 enhance baseline
COc1ccc2nc(SCC(=O)N3CC(=O)Nc4ccccc43)c(C#N)cc2c1,1.63,0.09
COCCn1c(SCC(=O)Nc2ccc(F)cc2)nc2c(oc3ccccc32)c1=O,0.33,-0.77
CCN(CC)C(=O)CSc1nc2ccccc2c(=O)n1OC,2.72,-1.54
O=C1NC(=O)/C(=C/c2ccccn2)S1,0.92,-0.57
Cc1cccnc1N1C(=O)c2ccc(C(=O)O)cc2C1=O,0.35,1.62
CN1CCN(C(=S)SCc2nc(N)nc(Nc3ccc(F)cc3)n2)CC1,1.03,-0.55
Cc1nc2ccccc2n1CCc1ccccc1,0.01,0.03
CCCn1nc(C(=O)NCc2ccccn2)c2ccccc2c1=O,0.25,1.15

Remaining list, next part.
molecule,KCNQ2 enhance,KCNQ2 enhance baseline
COc1ccc(NC(=O)COC(=O)c2ccc(Cl)c(S(N)(=O)=O)c2)c([N+](=O)[O-])c1,0.12,1.14
O=C(Nc1cccc(C(F)(F)F)c1)c1cc(-c2ccco2)on1,0.59,-0.24
COCCN1CCN(C(=O)C2CCC(=O)N(CCc3ccc(Cl)cc3)C2)CC1 (centres undefined),0.83,2.2
Cc1cc(C)c(C)c(S(=O)(=O)N2CCC(C(=O)NCC(c3ccccc3)N(C)C)CC2)c1C (centres undefined),0.32,1.63
Cc1cc(CNC(=O)Cn2cc([N+](=O)[O-])cn2)c2ccccc2n1,0.8,0.01
CCNC(=S)NNC(=O)c1ccoc1C,1,0
CCOC(=O)C1CCN(C(=O)CS(=O)Cc2nc(-c3ccc(C)cc3)oc2C)CC1 (centres undefined),2.1,-0.59
O=C(Cc1cccs1)Nc1cccc(-c2nc3cc4ccccc4cc3[nH]2)c1,0.64,-1.37

Rewritten with two lines to a compound: entries from further up.
The line under a structure holds: KCNQ2 enhance | KCNQ2 enhance baseline
- Cc1cc(CNC(=O)Cn2cc([N+](=O)[O-])cn2)c2ccccc2n1
    0.8 | 0.01
- CCNC(=S)NNC(=O)c1ccoc1C
    1 | 0

Further records follow.
molecule,KCNQ2 enhance,KCNQ2 enhance baseline
Cc1cccc(Nc2ncnc3nc[nH]c23)c1C,1.34,0.05
COc1ccc(CNC(=S)Nc2cccc(Cl)c2)cc1,0.93,-0.68
O=C(CSc1ccc(-c2ccccc2)nn1)N1CCOCC1,0.01,-1.89
CC(CCc1ccccc1)NC(=O)C(=O)c1c[nH]c2ccccc12 (centres undefined),1.13,0.4
COCCN(C(=S)Nc1ccccc1C)C(C)c1cccs1 (centres undefined),0.81,-0.36
Cc1c(Cl)cnc(NC(=O)COC(=O)c2nn(C)c(=O)c3ccccc23)c1Cl,0.8,-0.03
CCOC(=O)c1ccc(NC(=O)c2cccc(S(=O)(=O)N3c4ccccc4CC3C)c2)s1 (centres undefined),0.66,0.01
CCNS(=O)(=O)c1ccc(NC(=O)c2ccccc2SCCOC)cc1,2.39,-0.09

Remaining list, next part.
molecule,KCNQ2 enhance,KCNQ2 enhance baseline
O=c1[nH]c2cccnc2n1Cc1ccco1,2.6,-0.32
NC(=O)c1sc2nc(N3CCOCC3)c3c(c2c1N)CCCC3,0.6,-0.21
CCc1ccc(/C=N/NC(=O)c2cc(C3CC3)nc3ccc(Br)cc23)s1,0.05,-0.19
COC(=O)NCC(c1cccnc1)N1CCOCC1 (centres undefined),1.73,3.32
COc1ccc(CNc2nc3c(c(=O)n(Cc4ccc(Cl)cc4)c(=O)n3C)n2C)cc1,1.1,-3.3
CCOc1ccccc1C(C(=O)NC1CCCC1)N(Cc1ccco1)C(=O)CNC(=O)c1ccco1 (centres undefined),0.01,-0.49
NC(=S)n1[nH]c(-c2ccccc2)c(N=Nc2ccccc2C(=O)N2CCOCC2)c1=O,4.77,0.01
Cc1cccc(CN2CCN(CC(C)C)C(CCO)C2)n1 (centres undefined),0.25,0

Next part:
molecule,KCNQ2 enhance,KCNQ2 enhance baseline
CCN1CCN(CC(O)COC(C)C)CC1 (centres undefined),0.74,-0.41
CCOCCCNC(=O)c1ccccc1NC(=O)C1=C(C)OCCS1,1.96,0.32
O=C1CCN(S(=O)(=O)c2ccccc2)CCN1CCOCc1ccccc1,0.49,-0.58
O=C(NNS(=O)(=O)c1ccc(F)cc1)C1CCN(S(=O)(=O)c2ccccc2)CC1,0.43,-0.39
O=C(N/N=C\c1ccc(Cl)cc1)C1=NOC2COC3(CCN(c4ccc([N+](=O)[O-])cc4)CC3)OCC12 (centres undefined),0.94,0.41
O=c1oc2ccccc2nc1/C=C(\O)c1ccc(Br)cc1,1.78,-0.76
O=[N+]([O-])c1cc(S(=O)(=O)N2CCCC2)ccc1OCc1ccccc1,0.42,-0.73
